# High-throughput results (PubChem BioAssay)
# Rango release inh = inhibitors of RanGTP-induced Rango-importin beta complex dissociation. Potency, µM (top dose mostly 46.1 µM), for inactives: at the top dose activity change, negative = inhibition. O95149+P62826. 340,000 tested, 0.071% active. Biochemical FRET Rango-importin beta, RanGTP-induced dissociation; active means falling FRET ratio curve, often poorly fitted, with flat reads before Ran was added; inconclusive means other falling curves, or compound fluorescence or quenching; inactive means flat or rising ratio curve;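 note: potency is the fitted concentration of half-maximal effect; % of control where 0% means no effect; nearly all actives have a fitted effect of over 45% in size; -100% = wells without RanGTP and RCC1; the record marks most hits as doubtful in a second field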
#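 FRET read at 45 min, room temperature: inhibitors block the CFP/YFP signal rise when RanGTP (0.6 uM Ran, 2 mM GTP, 0.2 uM RCC1) frees Rango (0.1 uM) from importin beta (0.25 uM). Pre-read after 5 min compound exposure flags interference.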
# Rango complex inh = inhibitors of Rango-importin beta complex formation. Q14974. Rango CFP/YFP FRET sensor + importin beta, 45 min. Potency, µM (series often up to 92.2 µM), inactives show top-dose inhibition of complex formation. 340,000 tested, 0.031% active; active = rising FRET ratio curve, often small or poorly fitted; inconclusive = mostly compound fluorescence or quenching in the first reads; inactive = flat curves in all reads;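 note: potency is the fitted concentration of half-maximal effect; 0% = DMSO wells and 100% = buffer wells lacking importin beta; nearly all actives have a fitted effect of over 15% in size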
#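 FRET biosensor (snurportin 1 IBB flanked by EYFP and cerulean), 50 nM, with compound 5 min, then 0.125 microM importin beta in PBS, 1 mM DTT, 0.02% Tween-20, 0.1% BSA. CFP/YFP ratio read after 45 min at room temperature; pre-read flags interference.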
# GLA inh pH 4.5 = inhibitors of human alpha-galactosidase A at pH 4.5 | purified enzyme, 4-MU-alpha-Gal fluorescence, pH 4.5 | activity change, negative = inhibition, % at 105 µM | 230,000 tested, under 10 active | AID 1467; inconclusive = small, poorly fitted or top-dose-only inhibition, or a rising curve; inactive = flat fitted curve, though single readings scatter; no compound was filed as active;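 note: 0% = full activity with enzyme and -100% = basal without enzyme; dose as in the result columns while the protocol names 77 µM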
# Target sequence (P06280 whole entry, looked up): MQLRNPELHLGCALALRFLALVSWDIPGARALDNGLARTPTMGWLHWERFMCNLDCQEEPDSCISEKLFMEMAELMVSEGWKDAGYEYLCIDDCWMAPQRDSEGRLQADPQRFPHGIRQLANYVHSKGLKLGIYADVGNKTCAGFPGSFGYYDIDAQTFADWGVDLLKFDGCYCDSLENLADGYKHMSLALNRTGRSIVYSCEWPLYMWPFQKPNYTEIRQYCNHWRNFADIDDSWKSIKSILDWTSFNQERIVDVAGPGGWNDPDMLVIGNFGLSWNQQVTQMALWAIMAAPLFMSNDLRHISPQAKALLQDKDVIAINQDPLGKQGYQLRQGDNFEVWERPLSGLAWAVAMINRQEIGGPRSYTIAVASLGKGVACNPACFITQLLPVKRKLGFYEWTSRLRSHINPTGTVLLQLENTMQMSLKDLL
# miR-21 reporter = miR-21 reporter, rising signal; 340,000 tested, under 10 active; AID 2288; Potency, µM (doses to about 38.3 µM), for the others: top-dose reporter change, positive = more light; HeLa miR-21 FLuc reporter, luciferase, 48 h; active = well fitted rising curve with a large enough effect; inconclusive = small, poorly fitted or top-dose-only effect; inactive = no such curve, though single readings can be large or run the other way;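 note: % of control where 0% means no effect; miR-21 action dims this reporter so a rising signal means less miR-21 action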
#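 HeLa miR-21-FLuc reporter line, endogenous miR-21; 2000 cells/well in DMEM/10% FBS; compound titration up to ~40uM final, 48 h, 37 degree Celsius; luciferase detection reagent, 15 min lysis, CCD luminescence.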
# Active calls of the source: *; ? = inconclusive; . = not tested or not shown; & = joins results of further samples. Only part of the results is shown; the hit share may differ from the screen's.
SMILES,Rango release inh,Rango complex inh,GLA inh pH 4.5,miR-21 reporter
CCC(C)NC(=O)C1CCN(c2nc(C)cc(C)n2)CC1 (stereo not given),17%,-2.3%,3,-1%
COc1ccccc1CO/N=C/NC(=O)c1c(OC)ccnc1Oc1ccc(F)cc1,-3%,4.1%,-8,-1%
COc1ccc(C(=O)N2N=C(c3cccc(OC)c3)CC2(O)C(F)(F)F)cc1 (stereo not given),-4%,-3.2%,-1,-5%
CC(SC1=NCCS1)C(=O)Nc1nnc(-c2ccc(F)cc2)s1 (stereo not given),-1%,-3.8%,6,-20%
CCOC(=O)CN1C(=O)C(=O)N(Cc2ccccc2)C1=O,25%,-1.7%,.,-3%
Cc1cc(C)n2nc(SCC(=O)N(C)c3ccccc3)nc2n1,-2%,1.0%,-1,0%
Clc1cc(-c2ccccc2)nc(-c2ccccc2)n1,-5%,-2.0%,.,.
Cc1ccc(-n2nc3c(c2NC(=O)c2ccco2)CS(=O)C3)cc1 (stereo not given),-1%,-1.3%,.,-2%
COc1cccc(-c2nc(CSCC(=O)N3CCc4ccccc43)c(C)o2)c1,5%,-0.6%,-6,4%
O=C(NCc1ccc(OC(F)(F)F)cc1)c1cccc2c1C(=O)c1ccc(N3CCCCC3)cc1S2(=O)=O,?,?,.,.
Cc1ccc(NC(=O)COC(=O)COc2ccc(Cl)cc2C)c([N+](=O)[O-])c1,-6%,-1.1%,-3,0%
O=c1[nH][nH]c(=S)n1-c1ccccc1C(F)(F)F,.,.,-13,-19%
CCCCCc1cc(=O)c2ccccc2o1,2%,-2.5%,.,.
COc1ccc2[nH]c3c(=O)n(CCCCC(=O)N4CCCC4)c(=S)[nH]c3c2c1,-14%,-3.9%,-6,-3%
CC(C)(C)C1CCC(=NNC(=O)CN(c2ccccc2)S(C)(=O)=O)CC1 (stereo not given),-3%,-2.6%,-4,-3%
COc1ccc(-c2nc(C(N)=O)c3[nH]c(=O)n(-c4cccc(Cl)c4)c3n2)cc1OC,-7%,-1.4%,2,4%
O=C(O)c1ccc(Nc2ccc(F)c(F)c2)c([N+](=O)[O-])c1,-2%,0.1%,.,-8%
CCCC(=O)Nc1cc(-c2nn(C)c(=O)c3ccccc23)ccc1N1CCOCC1,7%,3.9%,7,-5%
COc1ccc(-n2c3c(c(=O)[nH]c2=O)C(NC(C)=O)(C(F)(F)F)C(=O)N3)cc1 (stereo not given),0%,-3.3%,6,10%&-4%
Cc1cc(C)cc(-n2ncc3c2CCCC3NC(=O)C2CCC2)c1 (stereo not given),4%,4.0%,.,-4%
Cc1ccc(-c2csc(N(CCc3ccccc3)C(=O)COc3ccccc3)n2)cc1,0%,-4.9%,-27,0%
CC1CCCN(c2nc(NCc3ccco3)nc(N)c2[N+](=O)[O-])C1 (stereo not given),-5%,3.4%,-13,4%
Cn1cccc1C(=O)C(=O)Nc1cccc(Cl)c1Cl,-5%,4.3%,-5,-36%
CCOC(=O)Cc1csc(NC(=O)c2ccc(C)o2)n1,-11%,-0.2%,-7,-15%
CC(C)c1ccc(CNc2ccc(N3CCOCC3)cc2)cc1,-5%,3.9%,-20,-13%
Cn1ncc(N=Cc2ccccc2)c1C(=O)Nc1cccc(Cl)c1,-6%,0.8%,-6,-17%
Cc1ccc(NC(=O)CSC2=Nc3ccccc3C3CC=NN23)c(C)c1 (stereo not given),1%,1.2%,-1,1%
CC(=O)C1=C(C)NC(=O)NC1c1ccc(OC2CCCC2)cc1 (stereo not given),-16%,?,-6,-3%
COC(=O)Cc1ccc(O)c(N)c1,-9%,0.4%,6,0%
O=C(NC1CCN(Cc2ccccc2)CC1)C1CCN(S(=O)(=O)c2cccc3cccnc23)CC1,5%,0.0%,-4,1%
CCSc1nnc(Cc2cc(=O)[nH]c(=O)[nH]2)n1-c1cccc(C)c1,9%,?,11,-1%
Cc1nc(NC(C)C)c2cnn(CCc3ccccc3)c2n1,?,?,-6,-65%
O=C(NCCCNC(=O)c1ccccn1)c1ccccn1,-3%,-0.8%,-4,-6%
Cc1cc(F)ccc1NC(=O)c1cc(S(=O)(=O)N2CCCC2)cn1C,-14%,1.2%,.,3%
CCNC(C(=O)c1c[nH]c2c(CC)cccc12)c1ccccc1 (stereo not given),7%,-1.5%,.,5%
COc1cc(NC(=O)c2ccc(CNc3c(N4CCOCC4)c(=O)c3=O)cc2)cc(OC)c1,-8%,-1.2%,-1,-3%
O=C(CSc1nc(C(F)(F)F)cc(=O)[nH]1)N1CCCCCC1,0%,-7.3%,.,.
CC(C)c1ccc(NC(=O)[C@H]2CSCN2C(=O)[C@@H]2CCC(=O)N2)cc1,2%,0.4%,.,-9%
O=C(c1cccnc1)n1nc(-c2ccco2)nc1NCc1cccs1,-3%,3.1%,3,-36%
O=C(COc1ccc2c(c1)OCO2)Nc1nccs1,11%,3.5%,.,0%
COCCNC(=O)C(=O)NCC(c1ccc2c(c1)OCO2)N1CCN(c2ccc(F)cc2)CC1 (stereo not given),-3%,-0.1%,.,1%
COc1cc(Cl)ccc1OCc1cc(C(=O)N(C)C2CCOC2)no1 (stereo not given),21%,0.8%,.,-47%
COc1ccc(NC(=O)C(=O)Nc2cccc3ccccc23)c(OC)c1,7%,-5.5%,.,-2%
N#Cc1c(SCC(=O)Nc2nc3ccc(Br)cc3s2)sc2c(O)cc(=O)[nH]c12,-12%,?,.,0%
O=C(NCCCN1CCCC1=O)C1CCN(S(=O)(=O)c2cccc(Cl)c2Cl)CC1,18%,0.4%,.,.
CC(=O)Nc1ccc(CN2CCCC(C(=O)c3cccc(C(F)(F)F)c3)C2)cc1 (stereo not given),16%,-2.0%,-8,5%
COc1ccc(S(=O)(=O)N2CCOCC2)cc1NC(=O)c1cc2c(s1)CCCC2,-8%,2.9%,1,-10%
Cc1cccc(NC(=O)CN2C(=O)S/C(=C\c3ccc(O)c([N+](=O)[O-])c3)C2=O)c1,-7%,-0.3%,-5,7%
COc1cccc(NC(=S)NCc2cccs2)c1,1%,-2.3%,3,-28%
CC(NS(C)(=O)=O)C(c1cccs1)N1CCN(c2ccccc2F)CC1 (stereo not given),11%,-0.9%,.,.
Cc1ccc(OCC(=O)N(C)CC(=O)Nc2ccccc2Cl)c([N+](=O)[O-])n1,9%,-1.1%,.,.
CC1CCCN(C(=O)NC2CC(=O)N(c3ccc4c(c3)OCCO4)C2)C1 (stereo not given),-19%,4.0%,.,.
Cc1nn(C(=O)N2CCOCC2)c(C)c1CN1C(=O)c2ccccc2C1=O,-25%,-3.0%,.,.
Cc1ccc(C(=S)N2CCN(Cc3ccccc3)CC2)s1,9%,-1.8%,-13,-11%
CCCCC(=O)N1CCCC(C)C1 (stereo not given),1%,-0.3%,-4,-1%
Cc1ccc(S(=O)c2ccc(C)cc2)cc1,-1%,-1.4%,9,-1%
CCN(CC)CCOC(=O)C(Cc1cccc2ccccc12)CC1CCCO1 (stereo not given),0%,5.0%,-12,-10%
Cc1ccc2c(CN(C)Cc3cccc(F)c3)cc(=O)oc2c1,-1%,-0.5%,.,-73%
CN(C)C1=NC[C@H](Cc2ccccc2)N1CCC1CCCC1,14%,6.7%,.,.
COc1ccccc1C(=O)N1CC(=O)Nc2ccc(C)cc2C1c1ccc(F)cc1 (stereo not given),-8%,2.2%,.,10%

# An excerpt of the results above, as a working copy:
SMILES,Rango release inh,Rango complex inh,GLA inh pH 4.5,miR-21 reporter
Cc1cc(C)n2nc(SCC(=O)N(C)c3ccccc3)nc2n1,-2%,1.0%,-1,0%
Clc1cc(-c2ccccc2)nc(-c2ccccc2)n1,-5%,-2.0%,.,.
Cc1ccc(-n2nc3c(c2NC(=O)c2ccco2)CS(=O)C3)cc1 (stereo not given),-1%,-1.3%,.,-2%
COc1cccc(-c2nc(CSCC(=O)N3CCc4ccccc43)c(C)o2)c1,5%,-0.6%,-6,4%
O=C(NCc1ccc(OC(F)(F)F)cc1)c1cccc2c1C(=O)c1ccc(N3CCCCC3)cc1S2(=O)=O,?,?,.,.
Cc1ccc(NC(=O)COC(=O)COc2ccc(Cl)cc2C)c([N+](=O)[O-])c1,-6%,-1.1%,-3,0%
O=c1[nH][nH]c(=S)n1-c1ccccc1C(F)(F)F,.,.,-13,-19%
CCCCCc1cc(=O)c2ccccc2o1,2%,-2.5%,.,.
COc1ccc2[nH]c3c(=O)n(CCCCC(=O)N4CCCC4)c(=S)[nH]c3c2c1,-14%,-3.9%,-6,-3%
CC(C)(C)C1CCC(=NNC(=O)CN(c2ccccc2)S(C)(=O)=O)CC1 (stereo not given),-3%,-2.6%,-4,-3%
COc1ccc(-c2nc(C(N)=O)c3[nH]c(=O)n(-c4cccc(Cl)c4)c3n2)cc1OC,-7%,-1.4%,2,4%
O=C(O)c1ccc(Nc2ccc(F)c(F)c2)c([N+](=O)[O-])c1,-2%,0.1%,.,-8%
CCCC(=O)Nc1cc(-c2nn(C)c(=O)c3ccccc23)ccc1N1CCOCC1,7%,3.9%,7,-5%
COc1ccc(-n2c3c(c(=O)[nH]c2=O)C(NC(C)=O)(C(F)(F)F)C(=O)N3)cc1 (stereo not given),0%,-3.3%,6,10%&-4%

# (continued)
SMILES,Rango release inh,Rango complex inh,GLA inh pH 4.5,miR-21 reporter
OC1COC(c2ccccc2)OC1C1OC(c2ccccc2)OCC1O (stereo not given),-13%,0.6%,.,.
CC1=C(C(=O)NCc2ccccn2)C2(CCC(C)CC2)OC1=O (stereo not given),0%,-0.2%,-19,0%
COc1ccc(OC)c(NC(=O)C2CCN(S(C)(=O)=O)CC2)c1,-19%,1.9%,-1,1%
CC(C)=CC(=O)OCC(=O)Nc1ccc(Cl)cn1,5%,-0.8%,2,-1%
COCCSc1nnc(NC(=O)C2CCN(C(=O)c3ccco3)CC2)s1,-9%,-0.3%,.,6%
N=C1S/C(=C\c2ccco2)C(=O)N1c1ccc2c(c1)OCO2,10%,0.1%,-1,-47%
COc1ccccc1N1CCN(C(c2cccs2)c2nnnn2C2CCCC2)CC1 (stereo not given),22%,2.7%,-6,-5%
CC(=O)Cn1ncc(Br)c(Br)c1=O,-16%,2.8%,10,?
Oc1c(C=C2N=c3ccccc3=N2)sc(=S)n1-c1ccccc1,-10%,-0.2%,-4,-7%
COc1ccc(S(=O)(=O)N2CCCCCC2)cc1NC(=O)c1ccccc1,1%,-2.3%,.,-4%
COc1ccc(C2=CSC3=NNC4(CCCCC4)NN23)cc1,18%,0.0%,1,-21%
CCCn1nnnc1SCC(=O)N1CCCCC1,-1%,2.8%,.,-6%
O=C(O)c1cccc(NC2=Nc3cccc4cccc2c34)c1,-23%,?,-1,-27%
O=c1c2ccsc2ncn1Cc1ccccc1F,-7%,0.9%,8,-4%
S=C(Nc1ccccc1)Nc1ccc(OCc2ccccc2)cc1,16%,-1.7%,-19,-4%
CCS(=O)(=O)NCCNc1ccc([N+](=O)[O-])cc1,-13%,0.9%,-8,1%
COc1cccc(OCCNC(=O)c2ccc(C)cc2)c1,-2%,-0.6%,.,-22%
COc1ccc(OC)c(-n2c(-c3ccc(C)cc3)n[nH]c2=S)c1,2%,0.5%,-7,-8%
COCCn1c(SCC(=O)Nc2cc(C)on2)nnc1-c1c[nH]c2ccccc12,5%,0.4%,2,-4%
CCOC(=O)N1CCN(C(=O)c2noc3c2COc2ccccc2-3)CC1,-7%,-5.8%,.,-25%
COc1ccccc1N(C)S(=O)(=O)c1ccc(C(=O)Nc2nc(C)cs2)cc1,5%,-0.3%,-7,24%
CC(=O)Oc1ccc(OC(C)=O)c2c1C1C=CC2CC1,?,1.8%,.,.
O=C(CSc1nc(-c2ccccc2)cc(=O)[nH]1)Nc1ccccc1F,-27%,0.0%,.,1%&-5%
CCCC[C@@H]1C[C@H]1[C@@H](NC(=O)c1ccco1)c1ccc(Cl)cc1,-17%,-1.3%,-1,5%
COC(=O)Cn1cnc2sc(C)c(S(=O)(=O)N3CCC(C)CC3)c2c1=O,21%,-4.3%,-18,-3%
CCC(C)c1c(O)nc(SCC(=O)Nc2ccccc2)[nH]c1=O (stereo not given),-2%,-3.1%,0,-6%
Cc1c(C(=O)NCCCn2ccnc2)oc2ccccc12,18%,?,-7,-2%
